# Mtb hypoxia inh: reduces hypoxia-regulated biosensor signal in M. tuberculosis. M. tuberculosis hypoxia-regulated fluorescent reporter, fluorescence. fluorescence inhibition, % (test concentration not listed). 300,000 tested, 0.1% active. AID 1159583;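 active = 35 to 45% if threefold the growth effect, above 45% if 1.5-fold the growth effect; inactive = the rest, general growth blockers included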;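 note: wells of about 50 µL received 100 nL stock; 0% = vehicle wells and 100% = reference inhibitor wells; whole bacteria with a GFP reporter of the hypoxia response; strong numbers were not always called active; many hits fall short of the cut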
# BJeLR lethal: kills HRASV12-expressing BJeLR cells | BJeLR (HRASV12) viability, CellTiter-Glo ATP luminescence, 48 h; reference of the scale not given here | inhibition, % (concentration not given with the values) | 300,000 tested, 0.17% active | AID 1554;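 active = replicate mean above 50%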;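 note: 50 nL library stock added to about 25 µL; numbers are from one replicate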
# RN4220 kill: S. aureus RN4220 growth inhibition. OD600, 16 h. inhibition, % (no concentration beside the values). 330,000 tested, 0.33% active. AID 1259311;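 active = z-score of -3 or lower and OD600 up to 0.18 on both plates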;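 note: plate controls were untreated cells for no effect and reference antibiotic for full effect; stock transfer was 100 nL into about 80 µL; one replicate is shown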
# ugtP null kill: kills S. aureus RN4220 lacking UgtP; 330,000 tested, 0.54% active; AID 1259309; growth inhibition, % (test concentration not listed); S. aureus RN4220 ugtP deletion, OD600 growth, 16 h; some inactives read as strong as hits;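 active = z-score under -3 and OD600 up to 0.15 on both plates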;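 note: plate controls were untreated wells for no effect and antibiotic for full effect; wells of about 80 µL received 100 nL stock; the first replicate is given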
# Bead autofluor: compound fluorescence in toxin protease inhibitor counterscreen. compound autofluorescence counterscreen, microsphere flow cytometry; active compounds read high. fluorescence intensity (no concentration beside the values). 360,000 tested, 3.1% active. AID 624483;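 active = at least 3 SD above the mean of all compounds, about 16000 in these data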;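 note: 100 nL of 1 mM stock went into each well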
# PrP 5UTR inh: suppresses PrP 5' UTR mRNA reporter expression | 340,000 tested, 0.35% active | cell-based PrP 5' UTR mRNA reporter, plate reader | AID 488862 | inhibition, % (test concentration not listed);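 active = every replicate at 50% or more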;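 note: 0 = median of the neutral control wells; tested in H4 reporter cells; numbers are from one replicate; inactives centre near -14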
# Mtb hypoxia inh growth: also measured in Mtb hypoxia inh; calls as there; growth inhibition, %; measured here: M. tuberculosis growth (absorbance);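 0% = vehicle and 100% = reference antibiotic; read after six days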
# Starred values were filed as active, the others as inactive; . = not tested or not shown; & = joins results of further samples.
1	COc1ccc(NC(=O)COC(=O)CCc2ccc(S(=O)(=O)N3CCOCC3)cc2)cc1OC
2	O=C(NCCOc1ccccc1)C1Nc2ccc(OC(F)(F)F)cc2C2C=CCC12 (stereo unspecified)
3	Cc1ccc(-c2nnn(CC(=O)N(CC3CCCO3)C(C(=O)NC(C)(C)C)c3ccc(F)cc3)n2)o1 (stereo unspecified)
4	Cn1nccc1NC(=O)Nc1ccc(OC(F)(F)F)cc1
5	Cc1noc(C)c1S(=O)(=O)N(C)CC1Oc2ccc(NC(=O)CCC(F)(F)F)cc2C(=O)N(C(C)CO)CC1C (stereo unspecified)
6	CCNC(=O)[C@H]1O[C@@H](n2cnc3c(N)ncnc32)[C@H](O)[C@@H]1O
entry no. | 1 | 2 | 3 | 4 | 5 | 6
RN4220 kill | 3.2 | 2.6 | 1.3 | . | 3.9 | .
Mtb hypoxia inh | -8 | 2 | -13 | . | 21 | .
Bead autofluor | 4710 | 3744 | 22682* | 6173 | . | 6013
Mtb hypoxia inh growth | 1 | 3 | 11 | . | 7 | .
ugtP null kill | 7 | 7 | -5 | . | 2 | .
BJeLR lethal | . | -4 | -7 | 6 | . | 0
PrP 5UTR inh | -26 | 15 | -10 | -21 | . | -19

7	COCCn1ccc2c(OCC(=O)NCCc3ccc(OC)c(OC)c3)cccc2c1=O
8	Cn1c2ccccc2c2nnc(SCc3nnc(-c4ccccc4)o3)nc21
9	Cc1cccc(C)c1-n1c(=O)n(Cc2ccccc2)c(=O)c2[nH]cnc21
10	CN(C(=O)CSc1nnc(-c2ccccc2)n1C)C1CCS(=O)(=O)C1 (stereo unspecified)
11	CCOc1ccc(N2CC(C(=O)Nc3ccc(S(=O)(=O)Nc4ncccn4)cc3)CC2=O)cc1 (stereo unspecified)
12	COc1ccc2c(-c3ccccc3)cc(SCC(N)=O)nc2c1
entry no. | 7 | 8 | 9 | 10 | 11 | 12
RN4220 kill | 4.2 | 2.7 | 6.4 | 3.4 | 6.8 | 5.5
Mtb hypoxia inh | 0 | 8 | -8 | -2 | . | 1
Bead autofluor | 4539 | . | 5068 | 3823 | 3551 | 13493
Mtb hypoxia inh growth | 2 | 0 | 7 | 10 | . | -2
ugtP null kill | 1 | 5 | -6 | 3 | 0 | -6
BJeLR lethal | 9 | -4 | 2 | 2 | . | -8
PrP 5UTR inh | 13 | . | -16 | -20 | -9 | -20

13	NC(=O)C(NC(=O)OCc1ccccc1)c1ccccc1 (stereo unspecified)
14	Cc1ccc(S(=O)(=O)N2CCN(S(=O)(=O)c3ccccc3)C2c2ccc(N(C)C)cc2)cc1 (stereo unspecified)
15	O=C(NCc1ccc(N2CCCC2=O)cc1)Nc1cccc2ccccc12
16	CCOC(=O)CSc1nnc2c3ccccc3n(C)c2n1
17	Cc1ccc(/C=C2/SC(=Nc3ccc(F)cc3)NC2=O)s1
18	COC(=O)c1ccc(C=NNC(=O)C(=O)NCC2CCCO2)cc1 (stereo unspecified)
entry no. | 13 | 14 | 15 | 16 | 17 | 18
RN4220 kill | 3.5 | 8.8 | 1.8 | 4.9 | 1.6 | 3.9
Mtb hypoxia inh | 17 | 7 | . | 5 | -3 | -3
Bead autofluor | 4210 | 3118 | 4610 | 3655 | 4197 | .
Mtb hypoxia inh growth | 3 | 5 | . | 13 | 0 | 3
ugtP null kill | 6 | -4 | 2 | 13 | -9 | 5
BJeLR lethal | 1 | -3 | 5 | -7 | 10 | .
PrP 5UTR inh | -3 | -17 | -6 | -15 | . | .

19	Cc1ccc(S(=O)(=O)CCC(=O)OCC(=O)c2c(C)[nH]c3ccccc23)cc1
20	O=c1[nH]cnc2c1C(c1ccc(Cl)cc1)c1c(nc[nH]c1=O)O2
21	CCCn1c(N=Cc2ccccc2O)nc2ccccc21
22	C/C(=N\N)c1c(-c2ccccc2)c2cc(Br)ccc2[nH]c1=O
23	CS(=O)(=O)Nc1cccc(C(=O)CC2(O)C(=O)Nc3ccc(Br)cc32)c1 (stereo unspecified)
24	Nc1cc(N)c(OCC(F)(F)F)cc1OCC(F)(F)F
entry no. | 19 | 20 | 21 | 22 | 23 | 24
RN4220 kill | 2.0 | 4.2 | 4.1 | . | 0.1 | 1.2
Mtb hypoxia inh | 2 | 18 | 8 | . | . | 16
Bead autofluor | 10341 | 3667 | . | 3414 | 2775 | 2233
Mtb hypoxia inh growth | 6 | 10 | 6 | . | . | 10
ugtP null kill | -11 | 7 | -11 | . | -2 | 4
BJeLR lethal | -4 | -4 | . | 3 | -4 | 3
PrP 5UTR inh | -20 | -13 | . | -16 | -12 | -10

25	O=C1/C(=C\c2cccs2)SC(=S)N1C1CCS(=O)(=O)C1 (stereo unspecified)
26	Cn1c(=O)[nH]c(=O)c2c1nc(N1CCOCC1)n2CCSc1nc2ccccc2[nH]1
27	CCOC(=O)c1cn2nc(Oc3cccc(F)c3)ccc2n1
28	CCCCNC(=O)C1CCC(CNS(=O)(=O)c2cccc3nsnc23)CC1 (stereo unspecified)
29	O=C(CN1CCOCC1)Nc1ccc(S(=O)(=O)NC2CCCCC2)cc1
30	Cn1c(=O)c2c(nc(NCc3ccco3)n2Cc2ccc(Cl)cc2Cl)n(C)c1=O
entry no. | 25 | 26 | 27 | 28 | 29 | 30
RN4220 kill | 11 | 3.1 | 7.5 | 1.7 | 2.4 | 7.0
Mtb hypoxia inh | 22 | 5 | -1 | 7 | -8 | 7
Bead autofluor | 4153 | 10362 | . | 5598 | 11494 | 24075*
Mtb hypoxia inh growth | 11 | 14 | -3 | 8 | -2 | 9
ugtP null kill | 2 | -2 | 1 | 0 | 0 | -15
BJeLR lethal | -2 | 1 | -5 | -3 | -2 | 3
PrP 5UTR inh | -53 | -7 | -25 | -9 | 10 | -20

31	COc1ccc(C2C(O)C(c3c[nH]c4ccccc34)=NN2C(=O)CCl)cc1 (stereo unspecified)
32	COc1ccc(C2OC34CCCCC3C(C#N)(C#N)C2(C#N)C(=N)O4)cc1 (stereo unspecified)
33	CCOc1ccccc1C(=O)Nc1nnc(CC)s1
34	O=C(O)COc1ccccc1/C=N/NC(=O)/C(=C\c1ccc2c(c1)OCO2)NC(=O)c1ccccc1
35	COc1cc(NC(=S)Nc2cccnc2)cc(OC)c1
36	CCOC(=O)c1oc2nc(CC(C)C)c3c(c2c1N)CCC3
entry no. | 31 | 32 | 33 | 34 | 35 | 36
RN4220 kill | 45 | 2.7 | -12 | . | 4.7 | 3.9
Mtb hypoxia inh | . | . | 4 | . | 14 | 16
Bead autofluor | 4976 | 2766 | 6242 | 4457 | 1981 | 20183*
Mtb hypoxia inh growth | . | . | 17 | . | 8 | 16
ugtP null kill | 15 | -1 | -9 | . | 12 | 21
BJeLR lethal | 100* | 4 | -2 | 1 | -16 | -2
PrP 5UTR inh | -3 | -14 | -57 | -15 | -15 | -22

37	CCOc1cc(Br)c(C(C)NC(=O)c2cccnc2)cc1OCC (stereo unspecified)
38	Cc1ccc(N2CCN(C(=O)c3ccccc3Br)CC2)c(C)c1
39	Cc1ccccc1CN1CCC(n2nccc2NC(=O)CCOc2ccccc2)CC1
40	Cn1sc(NC(=O)c2ccccc2Cl)nc1=O
41	O=C(NC1CCS(=O)(=O)C1)c1cccs1 (stereo unspecified)
42	O=C(NCCc1ccc(F)cc1)N[C@@H](Cc1ccccc1)C(=O)O
entry no. | 37 | 38 | 39 | 40 | 41 | 42
RN4220 kill | -2.0 | 9.7 | -5.6 | 2.2 | 3.9 | 2.5
Mtb hypoxia inh | 7 | . | -9 | 6 | -4 | -1
Bead autofluor | . | 3878 | 6012 | 24069* | 3597 | 4239
Mtb hypoxia inh growth | 6 | . | -5 | 9 | 9 | -5
ugtP null kill | 15 | 10 | -3 | -2 | 6 | 0
BJeLR lethal | 5 | 4 | -3 | 9 | 4 | -9
PrP 5UTR inh | . | -24 | -22 | 3 | -22 | 25

43	COc1ccc(CN(Cc2cccn2C)C(=O)c2cc3cc(OC)ccc3[nH]2)cc1
44	COC(=O)C(Cc1ccc(O)cc1)NC(=O)Cn1ccc(NC(=O)OCc2ccccc2)nc1=O (stereo unspecified)
45	O=C(CSc1ccc2nnc(-c3ccc(Cl)cc3)n2n1)N1CCCC1
46	COc1ccc2c(c1)C1NC(=S)NC(C)(O2)C1C(=O)Nc1ccccc1C (stereo unspecified)
47	COc1ccc(CCNC(=O)CCCCC(=O)NCCc2ccc(OC)cc2)cc1
48	O=C(CCSCc1ccccc1Cl)N1CCN(c2cccc(Cl)c2)CC1
entry no. | 43 | 44 | 45 | 46 | 47 | 48
RN4220 kill | 3.6 | 0.4 | 12 | 2.3 | 3.8 | -6.2
Mtb hypoxia inh | 6 | 2 | -3 | 14 | 0 | 6
Bead autofluor | 4721 | . | 4263 | 4167 | 3298 | 22753*
Mtb hypoxia inh growth | -2 | 5 | -5 | 12 | 16 | 1
ugtP null kill | 8 | -12 | -2 | 6 | 1 | -18
BJeLR lethal | -3 | . | 5 | -16 | -5 | -15
PrP 5UTR inh | -15 | . | 1 | -7 | -19 | 4

# Reformatted with two lines to a compound: entries from further up
# Below each compound – RN4220 kill	Mtb hypoxia inh	Bead autofluor	Mtb hypoxia inh growth	ugtP null kill	BJeLR lethal	PrP 5UTR inh
37) CCOc1cc(Br)c(C(C)NC(=O)c2cccnc2)cc1OCC (stereo unspecified)
→ -2.0	7	.	6	15	5	.
38) Cc1ccc(N2CCN(C(=O)c3ccccc3Br)CC2)c(C)c1
→ 9.7	.	3878	.	10	4	-24
39) Cc1ccccc1CN1CCC(n2nccc2NC(=O)CCOc2ccccc2)CC1
→ -5.6	-9	6012	-5	-3	-3	-22
40) Cn1sc(NC(=O)c2ccccc2Cl)nc1=O
→ 2.2	6	24069*	9	-2	9	3

# Looked up by structure from above (two):
27	CCOC(=O)c1cn2nc(Oc3cccc(F)c3)ccc2n1
43	COc1ccc(CN(Cc2cccn2C)C(=O)c2cc3cc(OC)ccc3[nH]2)cc1
entry no. | 27 | 43
RN4220 kill | 7.5 | 3.6
Mtb hypoxia inh | -1 | 6
Bead autofluor | . | 4721
Mtb hypoxia inh growth | -3 | -2
ugtP null kill | 1 | 8
BJeLR lethal | -5 | -3
PrP 5UTR inh | -25 | -15

# The results go on:
49	CCN(C[C@H]1N[C@@](CC)(C(=O)OC)[C@H]2C(=O)N(Cc3ccccc3)C(=O)[C@@H]12)S(=O)(=O)c1ccc(-c2ccccc2)cc1
50	CCOc1ccc(N2C(=O)CC(NCc3ccc(S(N)(=O)=O)cc3)C2=O)cc1 (stereo unspecified)
51	CCOC(=O)[C@]12Cc3cc(Cl)ccc3C1N(Cc1ccccc1)C(=O)c1ccccc12 (stereo partly specified)
52	OCCC1CC(O)C(O)[C@@]2(Cc3ccccc3CO2)O1 (stereo partly specified)
53	Cc1nn(Cc2ccccc2)c(C)c1C(=O)OCC(=O)c1cc(C)n(C2CC2)c1C
54	COCCNC(=O)/C(C#N)=C/c1ccc(N2CCOCC2)o1
55	Cc1ccc(S(=O)(=O)NCC2CCC(C(=O)NCc3ccc4c(c3)OCO4)CC2)cc1 (stereo unspecified)
56	O=C(NCCCN1CCOCC1)c1ccc(CS(=O)(=O)c2cccc(C(F)(F)F)c2)o1
entry no. | 49 | 50 | 51 | 52 | 53 | 54 | 55 | 56
RN4220 kill | 4.9 | 4.0 | -1.9 | 7.2&1.7 | -2.4 | 8.8 | 2.2 | 2.7
Mtb hypoxia inh | -3 | 9 | 9 | 19&-7 | -4 | 19 | 11 | 4
Bead autofluor | 2761 | 6015 | . | . | 10112 | 2620 | 11288 | 22992*
Mtb hypoxia inh growth | -3 | 10 | 16 | 13&1 | 4 | 1 | 0 | 4
ugtP null kill | -6 | -3 | -22 | 3&-7 | -7 | 1 | 3 | 0
BJeLR lethal | . | -10 | . | . | 12 | -5 | -2 | 1
PrP 5UTR inh | -6 | -18 | . | . | -23 | -15 | 5 | -21

# Compound activity: PubChem BioAssay, several laboratories
